# From PubChem
# B2AR ag = agonists of human beta-2 adrenergic receptor inducing internalization. 0.43% of 340,000 active. AID 504454. response, % (no concentration beside the values). Am2.2-beta2AR cells, FAP receptor internalization, flow cytometry; reference of the scale not given here;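 active = response above a set limit, near 3 SD of response in nonfluorescent compounds, cut at about 42% in these data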;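 note: stock transfer was 100 nL into about 11 µL; a reference agonist was the positive control; negative values mostly stem from fluorescent compounds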
# Target sequence (P07550 whole entry, looked up): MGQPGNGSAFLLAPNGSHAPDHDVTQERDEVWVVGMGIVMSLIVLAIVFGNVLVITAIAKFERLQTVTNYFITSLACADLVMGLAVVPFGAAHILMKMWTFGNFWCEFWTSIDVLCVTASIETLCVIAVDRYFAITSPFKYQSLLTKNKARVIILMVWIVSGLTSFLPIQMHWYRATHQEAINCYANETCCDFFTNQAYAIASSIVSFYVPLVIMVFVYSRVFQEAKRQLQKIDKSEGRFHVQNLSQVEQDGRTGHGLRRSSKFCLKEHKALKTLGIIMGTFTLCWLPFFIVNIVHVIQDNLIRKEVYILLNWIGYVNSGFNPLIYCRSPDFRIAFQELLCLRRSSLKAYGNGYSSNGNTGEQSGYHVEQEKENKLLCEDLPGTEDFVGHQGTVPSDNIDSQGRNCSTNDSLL
# Bfl-1 A1 inh = inhibitors of the anti-apoptotic protein A1, read as caspase activation | MEF A1-2A-BIM cells, Caspase-Glo 3/7 luminescence, 3 h; percent of clofoctol response, vehicle zero | caspase activation, % (test concentration not listed) | 0.066% of 330,000 active | AID 2462;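 active = over half of replicate activation scores above 10%, or exactly half above 10 with the replicate mean above 10; inconclusive = replicate mean below 10 yet half the replicates above 10; inactive = over half of replicates below 10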;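 note: wells of about 30 µL received 50 nL stock; many hits fall short of the cut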
# HNF4A DNA FP = change in binding of human HNF4 alpha to DNA; P41235; HNF4a-FITC DNA binding, fluorescence polarization, 1 h; activity change, % at 10 µM; 0.3% of 360,000 active; in the data active = activity change above about 30%, passing the limit was not always enough;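 note: controls were the assay level and a saturating level of protein; the project sought stronger binding though the title names inhibitors; some compounds called inactive have numbers as strong as hits; positive values seem to mean higher polarization but the record does not say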
# Vif TR-FRET = HIV-1 Vif–A3G interaction blockers – biochemical, TR-FRET, GST-Vif 1-94, biotin-A3G peptide, dose response retest, primary screen (AID 1117319); TR-FRET GST-Vif / biotin-A3G peptide binding; higher % means a stronger effect; test concentration not given here; strong numbers were not always called active; one-dose inhibition, %; IC50 in µM for titrated hits; 0.57% of 260,000 active;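 active = above the screen mean plus three standard deviations and confirmed in dose response; inconclusive = results disagree or hit not tested in dose response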;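 note: Vif residues 1-94 fused to GST binding biotinylated APOBEC3G peptide 110-148; 0% = full assay without inhibitor and 100% = GST in place of GST-Vif; retest series ran down from 100 µM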
# UCH37 inh = inhibitors of human deubiquitinating enzyme UCH37. Q9Y5K5. purified proteasome/UCH37, Ub-AMC cleavage fluorescence. inhibition, % (concentration not given with the values). 0.33% of 330,000 active;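 active = mean of two replicates above 20%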;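 note: 0% = compound-free wells with enzyme and 100% = wells lacking proteasome; stock transfer was 100 nL into about 20 µL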
# Target sequence (Q9Y5K5 whole entry, looked up): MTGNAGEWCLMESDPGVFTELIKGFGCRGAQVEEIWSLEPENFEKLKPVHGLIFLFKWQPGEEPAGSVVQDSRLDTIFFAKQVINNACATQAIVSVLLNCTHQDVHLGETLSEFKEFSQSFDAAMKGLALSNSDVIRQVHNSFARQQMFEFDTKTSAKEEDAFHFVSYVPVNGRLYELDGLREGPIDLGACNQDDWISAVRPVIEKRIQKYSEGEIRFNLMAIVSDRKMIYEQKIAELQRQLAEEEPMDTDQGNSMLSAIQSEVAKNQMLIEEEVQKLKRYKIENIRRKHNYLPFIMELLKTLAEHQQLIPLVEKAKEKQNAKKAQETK
#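 assay system = human UCH37 enzyme supplied as purified proteasome complex | amount = proteasome at 0.15 nM in the dispensed enzyme solution | schedule = 30 min compound-proteasome preincubation then 25 min substrate reaction, room temperature | measured by = fluorescence, ex 355 nm, em 460 nm | benchmarks = no-proteasome wells (full inhibition) and compound-free wells (no inhibition)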
# E coli growth = inhibitors of Escherichia coli growth. OD600, 23 h; stronger effect = lower value. AID 1053175. 0.21% of 330,000 active. OD600 absorbance (concentration not given with the values);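 active = OD600 absorbance below the run mean of sample wells minus 3.6 SD, in any replicate, cut at about 0.56 in these data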;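 note: stock transfer was 300 nL into about 60 µL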
# LANA-H2B inh = blocks KSHV LANA binding to histone H2A/H2B. 0.6% of 320,000 active. inhibition, % (test concentration not listed). cell-free LANA-H2A/H2B peptide, fluorescence polarization. AID 2629; in the data active = inhibition mostly above about 10%, no sharp cut-off; inactive = mostly below about 6.7%;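 note: stock transfer was 7.5 nL into about 10 µL; 0% = median of vehicle wells and 100% = median of positive control wells; one replicate is shown; the record names a cut of 25% in any replicate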
# The depositor's hits bear a star; ? = inconclusive; . = not tested or not shown; & = joins results of further samples. Only part of the results is shown. The share of hits here may be higher or lower than overall.
SMILES,B2AR ag,Bfl-1 A1 inh,HNF4A DNA FP,Vif TR-FRET,UCH37 inh,E coli growth,LANA-H2B inh
O=c1[nH]cc(COCC(F)(F)C(F)(F)C(F)(F)F)c(=O)[nH]1,-3,1.2,-0.7,23%,4.2,0.7,-0.5
CN1C(=O)N(C)C(=O)C(CCc2ccccn2)(CCc2ccccn2)C1=O,-5,0.0,-0.7,22%,0.9,0.75,3.7
Cc1cc2oc(=O)cc(-c3cc4ccccc4o3)c2cc1OC(=O)N(C)C,6,-0.4,-1.4,-5%,-7.8,0.67,0.2
CC(C)Oc1ccc(CC2(CCc3ccncc3)C(=O)NC(=O)NC2=O)cc1,3,0.4,3.6,0%,4.2,0.66,0.3
CCCCC/C(=N/O)c1c(C)[nH]c2ccccc12,-2,1.6,3.0,-3%,.,.,-0.6
COC(=O)C1=C(c2ccccc2)C[C@@H]2CC[C@H]1N2C(=O)NCCO,1,1.1,1.8,.,2.7,.,-2.7
COC(=O)C1=C(c2ccc(S(C)(=O)=O)cc2)C[C@@H]2CC[C@H]1N2C(=O)NC1CCCCC1,-1,-1.1,-6.9,.,4.0,.,-1.2
COC(=O)C1=C(c2cccc(OCc3ccccc3)c2)C[C@@H]2CC[C@H]1N2C(=O)NCc1ccc(C(C)(C)C)cc1,-12,2.4,-4.0,.,1.3,.,0.3
COC(=O)C(O)(c1ccc(N=Cc2ccccc2O)c(C)c1)C(F)(F)F (centres undefined),6,0.2,1.6,.,4.5,0.69,-3.2
Cc1cc(N2CCCC2)ccc1C=C(C#N)C#N,2,0.0,-20,6%,2.5,0.77,-0.6
Cc1cc(/C=C2/C(=O)NC(=O)N(c3ccccc3)C2=O)c(C)n1-c1ccc(F)cc1,-2,0.9,-1.9,6%,0.4,0.72,4.5
CC1(C)N(O)C2CCCCC2N1O (centres undefined),1,-0.5,1.3,5%,4.1,0.77,-0.8
OC1/C(=C/c2ccc(Cl)cc2Cl)N2CCC1CC2 (centres undefined),-1,0.0,-6.2,11%,2.0,0.7,1.1
CCCNC(=O)Cn1cnc2sc(C(=O)N3CCC4(CC3)OCCO4)c(C)c2c1=O,-5,0.8,-0.1,1%,4.4,0.7,1.3
CC(NCc1ccccc1Cl)C(O)c1ccccc1 (centres undefined),0,0.3,3.8,0%,2.2,0.59,2.0
O=C(C1c2ccccc2C(=O)N2CCc3ccccc3C12)N1CCC2(CC1)OCCO2 (centres undefined),-3,1.1,3.4,?,0.6,0.67,1.5
CCCCCn1c(=O)c(C(=O)Nc2ncccc2C)c(O)c2ccccc21,-7,0.3,0.3,-2%,-0.3,0.73,0.9
CCCCCn1c(=O)c(C(=O)NCc2ccccc2)c(O)c2ccccc21,13,2.0,0.8,.,-0.2,0.69,-0.3
Cc1nn(Cc2ccccc2Cl)c(Cl)c1C(=O)OC(C(=O)NC(N)=O)C(C)C (centres undefined),5,-2.0,-0.1,?,0.4,0.74,-2.2
Cc1ccccc1-n1c(O)c(C(c2ccncc2)c2c(O)n(-c3ccccc3C)c(=O)[nH]c2=O)c(=O)[nH]c1=O,-7&-3,-0.2&0.9,0.1&3.3,3%&11%,5.1&3.0,0.71&0.6,2.2&6.6
CNC(=O)Oc1ccc(-c2cn3cc(Cl)ccc3n2)cc1,1,-6.3,-2.0,.,.,.,-5.7
C[C@]12CCC3C(CC[C@H]4C[C@@H](O)CC[C@]34C)C1C[C@@H](O)[C@H]2O (some centres undefined),-1,1.0,-2.9,4%,0.5,0.66,-4.1
CCc1ccc(NP(=O)(Oc2ccccc2F)Oc2ccccc2F)cc1,12,0.5,-0.6,0%,2.9,0.72,2.9
COc1ccc(-n2c(/C=C/c3ccc(O)c(OC)c3)nc3ccccc3c2=O)cc1,-24,1.3,12,14%,1.6,0.66,1.1
CCOC(=O)c1ccccc1NC(=O)c1c(O)[nH]c(=O)[nH]c1=O,-3,0.3,3.7,.,-1.4,0.69,-1.8
# (continued)
SMILES,B2AR ag,Bfl-1 A1 inh,HNF4A DNA FP,Vif TR-FRET,UCH37 inh,E coli growth,LANA-H2B inh
COc1ccc(CN2C(=O)NC(=O)/C(=C\c3ccco3)C2=O)cc1,26,0.0,-6.5,?,2.6,.,4.6
ClCCN1CCN(c2ccnc3cc(Cl)ccc23)CC1,2,0.1,3.1,.,6.8,0.69,-4.1
C[C@H]1OC[C@@H](C[N+](C)(C)C)O1,2,0.1,-0.5,1%,-0.4,.,5.9
ClC1C(Cl)C(Cl)C(Cl)C(Cl)C1Cl (centres undefined),-3&8,1.2&0.3,-1.1&0.8,.,0.8&1.8,0.69,-0.2&-1.6
CN(C)CC1CSCCC1(O)c1ccccc1Cl (centres undefined),-3,-0.5,2.5,.,2.4,0.72,-0.1
CC(=NCc1ccco1)c1c(O)n(-c2ccccc2)c(=O)[nH]c1=O,-10,1.1,1.6,1%,1.2,0.68,0.9
Cc1ccccc1N1C(=O)NC(=O)/C(=C\c2cc(Br)c(N3CCOCC3)o2)C1=O,-118,0.4,135,?,23*,0.64,-36
CC1(O)CCC2C3CCC4=CC(=O)CCC4=C3C=CC21C (centres undefined),6,.,0.5,6%,-110,0.68,.
Cc1ccc(N)c(C(=O)c2ccc(Br)cc2)c1,-4,0.2,1.4,-7%,0.9,0.68,-4.0
Nc1ccc(S(=O)(=O)N2CC3CC(C2)c2cccc(=O)n2C3)cc1 (centres undefined),1,0.7,0.8,-4%,6.1,0.78,-0.8
COc1ccc(/C=C/C(=O)NC(=S)N2C[C@H]3C[C@H](C2)c2cccc(=O)n2C3)cc1,5,1.6,-1.4,.,3.7,0.71,-1.2
CN1CCC(N(C)Cc2cccnc2)CC1,4,0.2,1.3,-5%,.,.,5.1
CCC/C=C(\CCC)C(NP(=O)(c1ccccc1)c1ccccc1)c1ccccc1 (centres undefined),.,-0.9,.,.,1.5,.,-3.7
c1ccc2c(CCNC3=NCCC3)c[nH]c2c1,-2,-0.1,-0.8,16%,1.7,0.74,-2.0
c1ccc(CN2CCN(Cc3ccc4ccccc4c3)CC2)cc1,1,-1.3,1.0,.,4.8,0.64,-1.5
Cc1ccc2c(c1)N(CCC(=O)N1CCC3(CC1)OCCO3)C(=O)CO2,-4,-0.3,-1.7,-1%,3.3,0.73,-2.4
O=C1/C(=C\c2cccnc2)N2CCC1CC2,-6,-0.5,-4.0,-1%,7.5,0.64,-4.0
CCn1cc(CN2CCCC(C(=O)c3sccc3C)C2)cn1 (centres undefined),-6,-0.1,-1.7,19%,0.8,0.71,-12
COc1ccc(/C=C/C(=O)NC(=S)N2C[C@H]3C[C@H](C2)c2cccc(=O)n2C3)cc1OC,-6,0.4,3.5,.,3.4,0.78,2.8
CCc1ccc(C(=O)C23CN4CN(CN(C4)C2)C3)cc1,0,0.2,-2.1,21%,0.4,0.72,-1.2
O=[N+]([O-])c1ccc(N2CCNCC2)cc1NCC1CCCO1 (centres undefined),8,0.0,1.5,0%,12,0.7,2.0
CCN1CCN(S(=O)(=O)c2ccc(Cl)c(C(=O)Nc3ccc(C(=O)N(CC)CC)cc3)c2)CC1,5,0.1,2.9,-6%,5.1,0.71,-3.1
O=P1(c2ccccc2)Nc2ccccc2N1c1ccccc1 (centres undefined),-6,.,1.7,-6%,-1.7,0.67,.
Cn1c(O)c(C=NCCN2CCOCC2)c(=O)[nH]c1=S,4,-0.8,3.4,?,6.2,0.69,-0.9
O=c1[nH]c(=O)n(Cc2ccco2)c(O)c1C=NCc1cccs1,-7,-0.2,-1.6,9%,3.6,0.69,-0.7

# 6 entries drawn at random from the list so far:
SMILES,B2AR ag,Bfl-1 A1 inh,HNF4A DNA FP,Vif TR-FRET,UCH37 inh,E coli growth,LANA-H2B inh
CCN1CCN(S(=O)(=O)c2ccc(Cl)c(C(=O)Nc3ccc(C(=O)N(CC)CC)cc3)c2)CC1,5,0.1,2.9,-6%,5.1,0.71,-3.1
Cc1ccc(N)c(C(=O)c2ccc(Br)cc2)c1,-4,0.2,1.4,-7%,0.9,0.68,-4.0
c1ccc(CN2CCN(Cc3ccc4ccccc4c3)CC2)cc1,1,-1.3,1.0,.,4.8,0.64,-1.5
O=[N+]([O-])c1ccc(N2CCNCC2)cc1NCC1CCCO1 (centres undefined),8,0.0,1.5,0%,12,0.7,2.0
COc1ccc(CN2C(=O)NC(=O)/C(=C\c3ccco3)C2=O)cc1,26,0.0,-6.5,?,2.6,.,4.6
O=C1/C(=C\c2cccnc2)N2CCC1CC2,-6,-0.5,-4.0,-1%,7.5,0.64,-4.0

# (cont.)
SMILES,B2AR ag,Bfl-1 A1 inh,HNF4A DNA FP,Vif TR-FRET,UCH37 inh,E coli growth,LANA-H2B inh
CCC(=Nc1cc(OC)ccc1OC)c1c(O)[nH]c(=O)[nH]c1=O,7,0.1,1.1,?,3.3,0.72,1.4
O=C1C=CC(=O)C2C1C1(Cl)C(Cl)=C(Cl)C2(Cl)C1(Cl)Cl (centres undefined),1,.,-2.5,5%,3.7,0.51*,.
NCCc1c[nH]c2ccc(C(N)=O)cc12,-1,-1.3,2.7,.,2.3,0.71,4.2
CCCCC(CC)CNCC(O)c1ccccc1 (centres undefined),-11,0.8,-2.2,7%,5.3,0.66,-2.7
CSc1ncc(/C=C2/C(=O)NC(=O)N(C3CCCCC3)C2=O)cn1,3,0.0,2.6,?,1.1,0.81,-5.1
CCCCn1c(O)c(C(C)=NCCCN(C)C)c(=O)[nH]c1=O,-2,1.5,0.1,3%,0.0,0.63,2.0
CCC1CN1P(=O)(Oc1ccc(Cl)cc1)N1CC1CC (centres undefined),-1,.,1.1,-2%,2.7,0.69,.
Cc1nc2ccccc2c(=O)n1-c1cc(F)ccc1F,-2,-0.5,5.1,20%,1.0,0.71,0.6
CSc1ccccc1C(=O)C1CCCN(Cc2ccncc2)C1 (centres undefined),-2,-0.4,-1.9,5%,8.8,0.7,3.4
CCOP(=O)(OCC)c1ccc(OP(=O)(c2cccc([N+](=O)[O-])c2)c2cccc([N+](=O)[O-])c2)cc1,7,1.2,1.6,-3%,3.1,0.66,-0.4
CNC(=O)O/N=C/c1nn(C(=O)C(C)(C)C)cc1Br,3,0.5,-2.6,-17%,.,.,0.6
COc1ccc(N=Cc2c(O)n(Cc3ccccc3)c(=S)[nH]c2=O)c(OC)c1,6,-2.7,20,-8%,3.4,0.72,-32
CC(=O)c1c(C)n(C2CCCCC2)c2ccc(O)cc12,-4,0.6,2.9,-3%,0.6,0.66,3.4
COC(=O)C1=C(c2cccc(C#N)c2)C[C@@H]2CC[C@H]1N2C(=O)NCCCOC(C)C,-1,-0.6,-2.5,.,1.9,.,-7.4
CCOc1cccc(OCC)c2c(C)[n+](CC3CCCO3)c(C)c1-2 (centres undefined),8,0.2,-1.5,0.85µM*,8.9,0.62,-5.7
Cc1ccc(C(=O)N/C(=C/c2ccc(C(C)C)cc2)C(=O)NCCCN2CCOCC2)cc1,-5,2.4,-1.8,-3%,7.5,0.67,-9.2
COc1ccccc1-n1c(-c2cccs2)nc2ccccc2c1=O,-14,1.0,-0.5,.,3.2,0.7,-0.1
Cn1c(O)c(C(=Nc2ccc(F)cc2)c2ccccc2Cl)c(=O)n(C)c1=O,6,0.0,-6.1,5%,4.0,0.65,7.6
Cc1nc2c(=O)n(C)c(=O)nc-2n(C)n1,64*,-0.8,78*,-3%,100*,0.049*,1.0
COc1ccc(-c2nn(CCC#N)cc2C(=O)O)cc1,-3,0.5,-2.1,28%,2.0,0.66,1.0
